Bioassay records (PubChem BioAssay)
Sa growth inh: blocks Staphylococcus aureus growth | S. aureus RN4220 growth, OD600, 20 h, 42 °C; stronger effect = lower value | relative growth, % (no concentration beside the values) | hit rate 0.53% among 170,000 | AID 720641;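 active = growth at 42 °C up to 50% and 20 or more points under that at 30 °C, or under 10% at both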;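 note: 300 nL library stock went into each well; scaled to the means of positive and negative controls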
GIV-Gai inh: GIV-Galpha-i interaction inhibition. P08753. Galpha-i3/FITC-GIV peptide fluorescence polarization, 90 min; stronger effect = lower value; scaled: aluminum fluoride 0%, vehicle 100%. percent of control (FP), % (test concentration not listed). hit rate 0.42% among 210,000. AID 1224905;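 active = replicate mean at 85% of control or lower, very high polarization wells dropped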;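 note: wells of about 15 µL received 100 nL stock; the first replicate is given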
Target sequence (P08753 whole entry, looked up): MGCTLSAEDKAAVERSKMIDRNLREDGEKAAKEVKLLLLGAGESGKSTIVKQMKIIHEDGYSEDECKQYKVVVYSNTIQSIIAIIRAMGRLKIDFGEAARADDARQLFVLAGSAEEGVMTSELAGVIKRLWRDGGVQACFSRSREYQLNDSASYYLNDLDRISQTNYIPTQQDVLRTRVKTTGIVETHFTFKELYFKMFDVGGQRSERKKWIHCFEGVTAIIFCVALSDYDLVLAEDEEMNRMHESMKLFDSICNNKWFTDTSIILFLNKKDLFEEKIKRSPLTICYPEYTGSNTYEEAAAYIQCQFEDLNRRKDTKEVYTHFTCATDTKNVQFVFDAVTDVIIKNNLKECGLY
HCMV NEC inh: inhibitors of HCMV UL50-UL53 nuclear egress complex interaction; inhibition, % (no concentration beside the values); HTRF UL50-UL53 interaction, normalized percent inhibition; hit rate 0.15% among 190,000; AID 1918969;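 active = both replicates at 50% or more, plus weaker picks with an unusually low signal ratio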;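 note: stock transfer was 100 nL into about 20 µL; 0% = negative control wells and 100% = wells with untagged competitor protein; inactives centre near -12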
Sa growth inh second temp: further read-out of Sa growth inh, marked with its call; relative growth, %; measured here: growth at 30 °C;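 optical density after 20 h as mean of two plates; 100% = untreated growth and lower means inhibition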
* hit, by the source's call; nt = not tested or not shown; & = joins results of further samples.

SMILES | Sa growth inh | Sa growth inh second temp | GIV-Gai inh | HCMV NEC inh
Cc1nc(CSc2ccccc2)cc(=O)[nH]1 | nt | nt | 100.7 | -22.4
Cc1ccn2cc(-c3cccc(NC(=O)c4cc5cc(Br)ccc5oc4=O)c3)nc2c1 | nt | nt | 110.7 | -7.2
COc1ccc(N2C(=O)c3ccccc3C2(O)c2ccccc2)cc1OC (stereo unspecified) | 110.5 | 96.0 | 101.9 | -6.6
CC(C)c1ccc(N2C(=O)N(Cc3cccc([N+](=O)[O-])c3)c3ccccc3S2(=O)=O)cc1 | 91.7 | 85.8 | 103.2 | nt
CC1=C(c2ccc(C)c(C)c2)S(=O)(=O)N(Cc2ccc(C(=O)NCCN3CCCC3)cc2)C1=O | nt | nt | 99.9 | -36.4
Fc1ccc(/C=C/c2cccc3ccccc23)cc1 | 99.4 | 96.9 | 104.2 | -10.8
CCOC(=O)c1ccccc1NC(=O)c1nn(C)c2c1COc1ccccc1-2 | 102.1 | 85.9 | 98.6 | -17.3
Cc1noc2ncn(Cc3ccccc3)c(=O)c12 | nt | nt | 110.2 | -11.8
Clc1ccc(CN=C2Nc3ccccc3CS2)cc1 | nt | nt | 106.7 | -15.5
COC(=O)c1ccccc1NC(=O)C1=CC(c2ccc3c(c2)OCO3)=NS(=O)(=O)N1C | 125.7 | 93.7 | 144.6 | -10.8
CCOC(=O)/C=c1/nc2c([nH]c1=O)=NON2 | 69.9 | 53.0 | 96.8 | -76.7
CCOc1ccc(C2c3c(oc4ccc(C)cc4c3=O)C(=O)N2c2nc(C)c(C)s2)cc1OC (stereo unspecified) | 96.7 | 102.4 | 103.7 | 1.9
CNS(=O)(=O)c1cccc(C(=O)OCC(=O)Nc2ncc(Cl)cc2Cl)c1 | 81.3 | 64.5 | nt | -41.5
C=CCn1c(SCC(=O)NCc2ccc3c(c2)OCO3)nc2sc3c(c2c1=O)CCCC3 | nt | nt | 106.0 | -10.0
Cc1ccc(-c2noc(CCC(=O)N3CCOCC3)n2)c(=O)n1C(C)C | nt | nt | 101.1 | -29.7
COc1cc(C(c2nnnn2C2CCCCC2)N2CCc3ccccc3C2)ccc1O (stereo unspecified) | 95.9 | 98.7 | 103.4 | -18.7
CN1C(=O)/C(=C2\SC(=S)N(CC3CCCO3)C2=O)c2ccccc21 (stereo unspecified) | 86.6 | 96.0 | nt | -0.2
FC(F)(F)c1cccc(CSC2=NCCCN2)c1 | 117.3 | 86.7 | 100.0 | -14.3
CC(C)n1cnc2nc(CSc3ccc(NC(=O)c4ccc(Cl)cc4)cc3)cc(=O)n21 | nt | nt | 100.8 | -37.8
COc1ccccc1C1=NOC(COC(=O)c2ccc3ccccc3n2)C1 (stereo unspecified) | 88.0 | 87.1 | 99.9 | nt
Cc1ccc(Cn2c(=O)c3cccnc3n(CC(=O)Nc3cc(Cl)ccc3C)c2=O)cc1 | 104.2 | 82.7 | 99.8 | -31.4
O=C(Oc1cccc(C(F)(F)F)c1)c1ccc2nonc2c1 | 107.4 | 100.4 | 102.4 | -1.6
O=C(c1cnn(-c2ccccc2)c1-n1cccc1)N1CCCCC1 | 106.9 | 91.9 | 101.9 | nt
CC1(C(N)=O)CCCC1 | 96.3 | 81.3 | nt | -17.2
Cc1ccc(C)c(S(=O)(=O)N(C)CCc2noc(COc3ccc(Cl)cc3)n2)c1 | nt | nt | 99.6 | -3.7
CCOC(=O)c1ccc(NC(=O)CCc2c(C)nc3cc(-c4ccccc4OC)nn3c2C)cc1 | 100.4 | 89.1 | 100.2 | 1.6
c1ccc(Oc2ncnc3sc4c(c23)CCCC4)cc1 | 99.4 | 88.3 | 99.8 | -19.4
Cc1cc2c(c(SCC(=O)N(C)c3ccccc3)n1)C(=O)OC2 | 98.9 | 89.2 | nt | 1.7
NC(=O)COC(=O)c1cc2ccccc2cc1O | 89.6 | 76.0 | nt | -87.5
CCCN(CCC)S(=O)(=O)c1ccc2c(c1)N(CC(=O)NC(C)c1ccccc1)C(=O)CS2 (stereo unspecified) | 107.4 | 90.4 | 99.4 | nt
CC(C)Cn1c(SCc2cn3ccsc3n2)nc2sc3c(c2c1=O)CCCC3 | 78.8 | 54.6 | nt | -15.5
CCOc1ccccc1C(=O)N[C@H](C(=O)Nc1nccs1)C(C)C | 84.1 | 98.4 | nt | -33.1
CCOC(=O)c1cc2c(=O)n3ccccc3nc2n(CC2CCCO2)c1=NC(=O)c1ccc(OCC)cc1 (stereo unspecified) | 116.0 | 88.4 | 104.7 | -44.4
CCOc1ccccc1C1C2=C(CC(c3ccccc3)CC2=O)Nc2onc(C)c21 (stereo unspecified) | nt | nt | 99.2 | -6.9
Nc1nc(N2CCCC2)ncc1S(=O)(=O)c1ccc(C(F)(F)F)cn1 | 100.2 | 82.3 | 106.0 | -15.0
CCOc1ccc(CCNC(=O)c2cc3c(-c4ccc(OC)c(OC)c4)nn(C)c3s2)cc1OCC | 98.2 | 81.5 | 102.9 | -22.3

Laid out differently: results already given
The line under a structure holds: Sa growth inh, Sa growth inh second temp, GIV-Gai inh, HCMV NEC inh
CCOC(=O)c1cc2c(=O)n3ccccc3nc2n(CC2CCCO2)c1=NC(=O)c1ccc(OCC)cc1 (stereo unspecified)
    116.0, 88.4, 104.7, -44.4
c1ccc(Oc2ncnc3sc4c(c23)CCCC4)cc1
    99.4, 88.3, 99.8, -19.4

(listing goes on)
SMILES | Sa growth inh | Sa growth inh second temp | GIV-Gai inh | HCMV NEC inh
Cc1ccccc1NCCC(=O)O | 101.0 | 88.9 | nt | -15.1
CCN(CC)c1cccc(OC(=O)Nc2ccc(Cl)cc2)c1 | 111.1 | 86.9 | nt | -6.5
CCOC(=O)C1=C(C)N=c2s/c(=C3\C(=O)N(CC)c4ccccc43)c(=O)n2C1c1cccs1 (stereo unspecified) | nt | nt | 108.0 | 13.2
O=C(c1ccco1)N1CCN(Cc2cccc(Br)c2)CC1 | 114.9 | 115.9 | 97.1 | 7.4
CC(=O)c1cccc(-n2c(=O)c3c4c(sc3n(CC(=O)c3ccccc3)c2=O)CN(C(C)=O)CC4)c1 | 102.2 | 92.0 | 103.2 | -17.5
CCOC(=O)C12C(=O)OC(C)(C)C1C2(CC)C(=O)c1ccc(C)cc1 (stereo unspecified) | 93.0 | 89.5 | 99.1 | -25.2
Cc1nnc(SC(C)C(=O)Nc2ccc3c(c2)OCCO3)s1 (stereo unspecified) | 84.3 | 92.0 | nt | -21.9
COc1cccc(-c2cn3c(n2)sc2cc(C(=O)NC4CCCCCC4)ccc23)c1 | 117.2 | 70.6 | 109.3 | nt
CCCC(=O)Nc1ccc(Cl)c(NC(=O)c2ccc(Br)o2)c1 | 119.6 | 96.5 | 107.3 | -0.8
O=C(O)c1ccc(-n2cccn2)cc1 | 106.7 | 94.0 | nt | 10.5
Cc1cc(C(=O)N2CCN(c3ccccc3)CC2)c2ccccc2n1 | nt | nt | 108.7 | -6.1
CC(C)NC(=O)c1ccc2c(c1)N(Cc1cccc(Cl)c1)C(=O)c1ccccc1S2=O (stereo unspecified) | 115.9 | 90.8 | 106.2 | nt

Copied from the list:
Sa growth inh second temp result of `O=C(c1ccco1)N1CCN(Cc2cccc(Br)c2)CC1` stands at 115.9
HCMV NEC inh result of `O=C(O)c1ccc(-n2cccn2)cc1` stands at 10.5

Remaining list, next part:
SMILES | Sa growth inh | Sa growth inh second temp | GIV-Gai inh | HCMV NEC inh
CCCCN1Cc2c(nc3cc(C(C)(C)C)[nH]n3c2=O)C1=O | 90.8 | 91.5 | 105.6 | 5.8
O=C(Cn1cnc2c(oc3ccccc32)c1=O)N1CCC(Cc2ccccc2)CC1 | nt | nt | 108.9 | -17.9
COc1ccc(Nc2cc(N3CCCCCC3)c3nonc3c2[N+](=O)[O-])cc1 | nt | nt | 108.8 | -12.6
CCOC(=O)c1c(NC(=O)c2snnc2C)sc2c1CCC2 | nt | nt | 97.8 | -10.5
Cc1cc(C)c2nc(C(F)(F)F)nc(N3CCN(c4ccccc4F)CC3)c2c1 | 119.2 | 66.0 | 99.0 | 21.1
COc1ccc(CNc2ncnc3scc(-c4ccc(Cl)cc4)c23)c(OC)c1 | nt | nt | 102.9 | -5.3
Cc1nc(-c2cccc(F)c2)sc1CCNC(=O)C(=O)Nc1ccc2c(c1)OCO2 | 107.6 | 96.3 | 107.4 | nt
CCOc1ccc(CN(C)C(=O)[C@H](C)NC(=O)c2ccco2)cc1OC | 72.5 | 90.5 | nt | -27.3
CC(C)(C)c1ccc(C(=O)N2CC(OCc3ccc(F)cc3Cl)C2)cc1 | nt | nt | 101.2 | -26.5
C#C[C@]1(O)CCC2C3CCC4=C(CCC(=O)C4)C3CC[C@@]21C (stereo partly specified) | 84.1 | 79.7 | nt | -10.7
C1CCCCCC(NCCN2CCNCC2)CCCCC1 | 134.9 | 85.4 | 102.1 | -17.0
CCCNC(=O)CN1C(=O)CCCc2ccccc21 | nt | nt | 107.0 | -7.9
C=CCN(c1ccccc1)S(=O)(=O)c1ccc2[nH]cc(C(=O)NCC3CCCO3)c(=O)c2c1 (stereo unspecified) | 97.2 | 88.2 | 101.1 | 2.9
Cn1c(=O)c(N2CCC(C(=O)NCCCN3CCN(c4ccccc4)CC3)CC2)nc2ccccc21 | nt | nt | 108.3 | -11.2
O=C(CSc1nnc(-c2ccc(O)cc2)o1)c1ccc(Br)cc1 | 107.6 | 77.7 | 105.5 | nt
Cc1nn(CCCC(=O)NCc2ccccc2)c(=O)c2c1sc1ccccc12 | 86.8 | 77.6 | 113.6 | -10.7
CCOC(=O)CSc1nc2ccccc2n1Cc1ccccc1 | 112.1 | 100.2 | 102.8 | -6.7
COc1cccc(NC(=O)CCNS(=O)(=O)c2c(C)[nH]c(C)c2C(=O)N2CCCC2)c1 | nt | nt | 104.5 | -25.3
COc1ccccc1N1CCN(S(=O)(=O)c2c(C)sc3ncn(CC(=O)Nc4ccccc4F)c(=O)c23)CC1 | 80.4 | 89.5 | 105.2 | -23.7
CCOC(=O)c1cc2c(OC)ccc(OC)c2n1CC(=O)c1ccccc1 | nt | nt | 101.1 | -19.0
Cn1ccc2c(OCC(=O)NCc3ccccc3)cccc2c1=O | 115.6 | 86.3 | 92.8 | nt
CN(Cc1nnc(-c2ccccc2)o1)C(=O)Nc1ccc(Cl)cc1 | nt | nt | 101.3 | 3.1
Brc1ccc(OCc2nn3c(C4COc5ccccc5O4)nnc3s2)cc1 (stereo unspecified) | nt | nt | 104.4 | 10.2
CC(=O)N1CCN(c2ccc(Oc3nc(-c4ccccc4)nc4ccccc34)cc2)CC1 | 103.8 | 95.0 | nt | 7.2

5 compounds drawn at random from the list so far:
SMILES | Sa growth inh | Sa growth inh second temp | GIV-Gai inh | HCMV NEC inh
NC(=O)COC(=O)c1cc2ccccc2cc1O | 89.6 | 76.0 | nt | -87.5
CC(C)NC(=O)c1ccc2c(c1)N(Cc1cccc(Cl)c1)C(=O)c1ccccc1S2=O (stereo unspecified) | 115.9 | 90.8 | 106.2 | nt
CC(=O)c1cccc(-n2c(=O)c3c4c(sc3n(CC(=O)c3ccccc3)c2=O)CN(C(C)=O)CC4)c1 | 102.2 | 92.0 | 103.2 | -17.5
Cc1cc(C)c2nc(C(F)(F)F)nc(N3CCN(c4ccccc4F)CC3)c2c1 | 119.2 | 66.0 | 99.0 | 21.1
O=C(CSc1nnc(-c2ccc(O)cc2)o1)c1ccc(Br)cc1 | 107.6 | 77.7 | 105.5 | nt

(more compounds)
SMILES | Sa growth inh | Sa growth inh second temp | GIV-Gai inh | HCMV NEC inh
CN(Cc1ccccc1)c1ccc2cc(S(=O)(=O)N3CCCCC3)ccc2n1 | 84.4 | 93.2 | 103.2&99.5 | -4.2
Cc1ccc(S(=O)(=O)CCC(=O)N(Cc2nnc(-c3ccc(Cl)cc3)o2)C2CC2)cc1 | 105.7 | 65.9 | nt | -5.5
CN(Cc1ccccc1)c1ccc(-c2nc(-c3ccco3)no2)cc1[N+](=O)[O-] | 95.5 | 81.4 | 102.9 | -26.1
Cc1nn(-c2nc(-c3ccc(F)cc3)cc(C(F)(F)F)n2)c(C)c1Br | 95.8 | 84.7 | 105.1 | -4.4
CC(C)c1ccc2oc(-c3cc(NC(=O)c4cccs4)ccc3Cl)nc2c1 | 86.9 | 71.9 | 108.1 | 1.3
O=C(NCc1ccco1)C12CC3CC(CC(C3)C1)C2 | 130.1 | 80.9 | 97.1 | -16.3
Cc1c(Cl)cccc1NC(=O)CSc1ncc2c(n1)-c1ccccc1N(C)S2(=O)=O | 86.2 | 89.3 | 101.3 | nt
COc1ccc(N=C2SC(C(=O)Nc3ccccc3)CC(=O)N2C)cc1 (stereo unspecified) | 105.5 | 104.4 | 106.4 | -15.1
Cc1cc(C)n(-c2nc3ccccc3nc2Nc2cc(C(=O)O)ccc2C)n1 | 110.8 | 86.3 | 101.9 | -13.5
CCOC(=O)c1c(NC(=O)COc2ccc(Cl)cc2)sc(C(=O)Nc2ccccc2OC)c1C | nt | nt | 109.7 | 4.8
Cc1nc2ccccc2c(=O)n1Cc1noc(/C=C/c2ccccc2)n1 | nt | nt | 107.0 | -55.5
O=C(Cc1cccs1)NC1CC(=O)N(c2cccc(F)c2)C1 (stereo unspecified) | 119.7 | 83.5 | 101.2 | nt
Cn1c(=O)[nH]c(=O)c2c1nc1n2CCCN1c1ccccc1 | 106.9 | 97.3 | 102.5 | -22.7
COC(=O)c1cc(C2CC2)nc2c1c(C)nn2-c1ccccc1 | 98.3 | 110.0 | 96.1 | 5.8
O=S(=O)(/C=C/c1ccccc1)N1CCN(CCc2ccncc2)CC1 | 97.2 | 88.4 | nt | -16.0

Compounds as they come; overall some 0.85% were active at least once.
